Source: PubChem BioAssay (several laboratories)
Vif A3G: HIV-1 Vif–A3G interaction blockers – biochemical, TR-FRET, GST-Vif 1-94, biotin-A3G peptide, dose response retest, primary screen (AID 1117319) | TR-FRET GST-Vif / biotin-A3G peptide binding; higher % means a stronger effect; test concentration not given here; strong numbers were not always called active | one-dose inhibition, %; IC50 in µM for titrated hits | 260,000 compounds, 0.57% hits;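 active = above the screen mean plus three standard deviations and confirmed in dose response; inconclusive = results disagree or hit not tested in dose response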;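 also: Vif residues 1-94 fused to GST binding biotinylated APOBEC3G peptide 110-148; 0% = full assay without inhibitor and 100% = GST in place of GST-Vif; retest series ran down from 100 µM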
MLL AF4-AF9 inh: inhibitors of human MLL-AF4/AF9 interaction; AlphaScreen, biotin-AF4 peptide binding to FLAG-AF9; inhibition, % at 10 µM; 350,000 compounds, 0.47% hits; AID 651704;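 active = every replicate reaching a set inhibition limit, whatever the replicate mean, cut at about 25% in these data; inconclusive = mean inhibition reaches that limit but some replicates miss it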;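 also: 0% = plate neutral control median and 100% = total signal loss; the record names both 10 and 1 µM as test concentration; the first replicate is given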
Target sequence (P42568 whole entry, looked up): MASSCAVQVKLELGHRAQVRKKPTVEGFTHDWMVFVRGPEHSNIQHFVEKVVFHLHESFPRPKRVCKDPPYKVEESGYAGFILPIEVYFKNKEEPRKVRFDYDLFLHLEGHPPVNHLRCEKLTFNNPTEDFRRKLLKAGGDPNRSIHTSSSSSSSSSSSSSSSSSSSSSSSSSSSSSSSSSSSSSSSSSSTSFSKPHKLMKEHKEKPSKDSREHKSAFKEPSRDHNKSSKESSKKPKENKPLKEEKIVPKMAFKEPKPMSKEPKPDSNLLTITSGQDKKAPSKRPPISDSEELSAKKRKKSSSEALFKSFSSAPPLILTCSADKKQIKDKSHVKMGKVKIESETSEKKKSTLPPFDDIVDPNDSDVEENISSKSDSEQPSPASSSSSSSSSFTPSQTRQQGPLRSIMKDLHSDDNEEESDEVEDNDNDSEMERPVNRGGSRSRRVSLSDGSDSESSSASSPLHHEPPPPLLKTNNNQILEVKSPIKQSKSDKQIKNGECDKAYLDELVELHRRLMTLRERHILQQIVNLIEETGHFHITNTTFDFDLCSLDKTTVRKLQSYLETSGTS
RanGTP-Imp inh: disruptors of Ran-importin-beta complex formation – biochemical, FRET, CFP-Ran, YFP-importin-beta, homogeneous, primary screen; 300,000 compounds, 1.1% hits; cell-free CFP-Ran/YFP-importin-beta FRET ratio; AID 2216; inhibition, % (concentration not given with the values);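 active = most replicates above 15%; inconclusive = exactly half above 15%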;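 also: 0% = DMSO wells and 100% = Ran loaded with GDP instead of GTP; wells of about 40 µL received 100 nL stock; the first replicate is given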
Calb FLC: affects C. albicans growth with fluconazole | C. albicans CaCi-2 (fluconazole-resistant clinical isolate) + fluconazole, Alamar Blue growth, 48 h | growth inhibition, % (no concentration beside the values) | 300,000 compounds, 0.57% hits;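 active = most replicates above 75%; inconclusive = exactly half above 75%; inactive = most below 75%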;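 also: all wells also contain fluconazole at 8 µg/ml as a sub-toxic cotreatment; 0% = median of DMSO wells and 100% = median of geldanamycin control wells; wells of about 8 µL received 7.5 nL stock; the first replicate is given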
A1 inh: inhibitors of the anti-apoptotic protein A1, read as caspase activation; MEF A1-2A-BIM cells, Caspase-Glo 3/7 luminescence, 3 h; percent of clofoctol response, vehicle zero; caspase activation, % (test concentration not listed); 330,000 compounds, 0.066% hits;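 active = over half of replicate activation scores above 10%, or exactly half above 10 with the replicate mean above 10; inconclusive = replicate mean below 10 yet half the replicates above 10; inactive = over half of replicates below 10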;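 also: wells of about 30 µL received 50 nL stock; many hits fall short of the cut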
Beta apoptosis: beta cell apoptosis inhibition; INS-1E cytokine-induced death, ATP luminescence, 48 h; percent of positive-control rescue, neutral wells zero; protection from apoptosis, % (no concentration beside the values); 300,000 compounds, 0.8% hits;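 active = all replicates at 75% or more, or half of them and the mean; inconclusive = half reach 75% but not the mean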;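 also: 0% = cytokine-treated negative control wells and 100% = positive control rescue; higher means more ATP so stronger rescue from cytokine killing; wells of about 40 µL received 100 nL stock; the first replicate is given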
T cruzi inh: blocks replication of Trypanosoma cruzi; AID 1885; T. cruzi beta-gal in NIH3T3, luminescence, 90 h; 300,000 compounds, 1.4% hits; inhibition, % (no concentration beside the values);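 active = mean inhibition across valid replicates above about 55%, limit read from the data; inconclusive = mean below that limit but half or more replicates reach it; inactive = mean below it, under half of replicates reach it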;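 also: signal also drops with host cell toxicity which is not excluded here; 0% = plate median of DMSO wells and 100% = zero luminescence signal; higher percent means less beta-gal luminescence so fewer parasites; stock transfer was 50 nL into about 50 µL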
LANA-H2A inh: blocks KSHV LANA binding to histone H2A/H2B; cell-free LANA-H2A/H2B peptide, fluorescence polarization; inhibition, % (concentration not given with the values); 320,000 compounds, 0.6% hits; AID 2629; in the data active = inhibition mostly above about 10%, no sharp cut-off; inactive = mostly below about 6.7%;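 also: stock transfer was 7.5 nL into about 10 µL; 0% = median of vehicle wells and 100% = median of positive control wells; one replicate is shown; the record names a cut of 25% in any replicate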
An asterisk follows results filed as active; ? = inconclusive; nt = no result given; & = joins results of further samples. No enrichment for hits; any-hit rate near 4.3%.

SMILES	Vif A3G	MLL AF4-AF9 inh	RanGTP-Imp inh	Calb FLC	A1 inh	Beta apoptosis	T cruzi inh	LANA-H2A inh
CCCCN(Cc1ccco1)S(=O)(=O)c1c[nH]c(C(=O)OC)c1	-5%	-6.6	0.9	1	0.2	-6	1	0.5
CN(C/C=C/c1ccccc1)C1CCCCC1	0%	-5.7	1.0	-10	-0.9	-7	25	0.5
CC(=O)N/C(=C\c1ccccc1)C(=O)NC(C)C(=O)O (stereo not given)	nt	-0.5	6.0	-2	1.1	-3	-17	1.8
Cc1cc(C)n(-c2ccc(C(=O)NC(C)C)cc2)n1	1%	-4.8	1.5	-3	-0.6	4	-18	-4.0
O=C(COC(=O)/C=C/c1ccco1)Nc1cccc([N+](=O)[O-])c1	nt	-2.3	2.4	-16	-0.2	-1	-9	3.0
CCOC(=O)c1cnc(SCc2nc(N)nc(Nc3ccccc3)n2)nc1N	-3%	nt	?	-47	0.6	5	-8	5.2
CCN1C(=O)CC(c2ccc(OC(C)C)cc2)C1=O (stereo not given)	-1%	0.2	0.9	3	0.1	4	-5	3.4
Clc1ccc(-c2csc(=Nc3cccnc3)n2CCCn2ccnc2)cc1Cl	nt	47*	-0.1	2	1.0	23	57*	-1.7
Clc1ccc(Cn2c(-c3cccnc3Cl)nc3ccccc32)cc1	29%	nt	2.2	6	-0.9	3	-6	6.8
Oc1ccc(F)cc1-c1cc(-c2ccc3c(c2)OCCO3)n[nH]1	9%	nt	3.4	8	-3.8	12	1	0.5
Cn1c(N)c(C(=O)COC(=O)CCC2CCCCC2)c(=O)n(C)c1=O	6%	-2.3	2.3	-6	-0.4	-4	2	4.4
CNc1nc2sc3c(c2c(=O)n1C)CC(C)(C)SC3	21%	nt	0.9	2	-0.4	-3	16	6.3
CCN(CC)CCCn1c2c(c(SCC(=O)Nc3nc(C)cs3)nc1=O)CCC2	0%	2.3	-1.2	0	0.9	-4	-8	2.2
CCCCCNC(=O)c1cccnc1SCC(=O)Nc1ccccc1OC	nt	nt	-3.7	-10	1.1	6	11	-0.4
O=C(Nc1n[nH]c(C2CCCCC2)n1)C1CCCCC1	0%	-3.8	5.0	-18	-0.1	-2	2	1.7
O=C(NCC(c1ccco1)N1CCN(c2ccccc2F)CC1)OCc1ccccc1 (stereo not given)	19%	-0.1	1.5	-5	0.7	9	8	-9.2
O=C(c1ccccc1)N1CCN(C(=O)c2nn3c(C(F)(F)F)cc(-c4ccco4)nc3c2Cl)CC1	nt	-4.1	-2.1	-5	-0.4	-4	10	-1.2
Cc1ccc2nc(-c3ccncc3)c(NC3CCCCC3)n2c1	-5%	-0.1	-1.2	0	-0.3	4	60*	3.4
C[C@H]1CN([C@@H](C)CO)C(=O)c2cc(NS(=O)(=O)c3ccc(Cl)cc3)ccc2O[C@@H]1CN(C)CC1CCCCC1	nt	0.3&1.6	nt	nt	-0.4	-3	nt	-0.8
CCN(Cc1ccncc1)C(=O)c1cc(COc2c(C)cccc2C)on1	4%	4.5	-1.0	-3	0.2	-2	57*	3.0
O=C1C(=O)N(CCN2CCOCC2)C(c2ccc(Cl)c(Cl)c2)/C1=C(/O)c1ccc2c(c1)OCO2 (stereo not given)	nt	0.1	6.2	-4	1.2	-1	-3	4.3
CC1Cc2ccccc2N1CC(=O)c1c(N)n(Cc2ccccc2)c(=O)n(C)c1=O (stereo not given)	1%	9.5	6.8	-1	-0.6	-3	32	0.8
CCCCOc1ccc(C(=O)N/C(=C\c2ccc(OC)cc2)C(=O)OCc2ccco2)cc1	-2%	nt	2.4	2	0.1	-2	6	-2.3
Cc1nc(C(=O)Nc2ccccc2)sc1C(=O)Nc1ccccc1	16%	-5.4	-0.6	-1	-0.1	-5	4	1.1
O=C(c1ccco1)N1CCC(c2nc3c(nnn3Cc3ccccc3Cl)c(=O)[nH]2)CC1	nt	2.0	-1.7	1	-0.2	0	8	-3.2
CCc1c(C)nc2ncnn2c1N1CCC(C(=O)Nc2ccc(C)cc2)CC1	8%	nt	6.9	-1	1.9	-8	-22	4.2
C=CCNc1cc(N2CCCC2)ccc1[N+](=O)[O-]	nt	1.7	-3.4	11	-0.2	-1	8	1.8
CCOc1cc(/C=N/NC(=O)C(=O)Nc2cc(Cl)ccc2C)ccc1O	nt	-1.4	3.1	-1	1.4	-1	-13	2.2
CCOc1cc2[nH]c(=O)n(CCC(=O)NCCc3ccc(OC)c(OC)c3)c(=O)c2cc1OCC	-1%	nt	-0.5	-7	-1.8	1	5	-3.1
Cc1cc(NC(=O)NN2CCOCC2)nn1-c1c(Cl)cc(Cl)cc1Cl	-7%	0.0	0.3	-5	0.1	1	8	-2.6
CC(=O)c1cccc(CN2CCCCC2C(=O)Nc2ccc(Oc3ccccc3)nc2)c1 (stereo not given)	4%	-2.2	-1.8	-15	-0.3	-8	-7	-3.1
CCOC(=O)C1(CCCc2ccccc2)CCN(S(=O)(=O)N(C)C)CC1	nt	-3.8	2.4	-2	-0.3	0	5	-6.9
Cc1c(NC(=O)Nc2c(Cl)cccc2Cl)c(=O)n(-c2ccccc2)n1C	6%	0.6	0.7	3	-0.5	-2	-6	-2.0
CC(C)CNC(=O)COC(=O)c1cc(S(=O)(=O)N(C)C)ccc1N1CCCC1	5%	-0.7	-1.5	22	0.0	nt	2	1.9
CCOC(=O)N/N=C/c1c(F)cccc1F	26%	nt	2.5	1	-1.1	-2	-6	-4.3
Cc1ccc(S(=O)(=O)c2nc(C(C)(C)C)oc2N2CCOCC2)cc1	-6%	nt	2.4	-15	0.8	2	-20	-0.2
CCN(CC(=O)Nc1ccccc1OC)C(=O)c1ccc(NS(=O)(=O)c2ccc(C(C)=O)cc2)cc1	nt	-1.0	0.4	11	-0.1	-10	-5	3.1
CCOC(=O)NNC(=O)C1CCC(C)CC1 (stereo not given)	3%	-3.6	8.4	7	0.3	-2	9	-145
O=C(CCc1ccccc1)NCC1(c2ccccc2)CCCC1	-2%	-2.4	5.2	5	-1.2	0	-3	2.4
CCN(c1ccc(NC(=O)COC(=O)c2cc3ccccc3oc2=O)cc1)C(C)C	8%	5.8	-0.4	8	0.3	-5	-8	-0.4
O=C(/C=C\Nc1ccc2c(c1)OCO2)c1cccs1	8%	8.4	0.5	-9	0.0	-4	-20	-0.4
OC(CN=c1sc2ccccc2n1CC(O)COc1ccccc1)COc1ccccc1 (stereo not given)	-1%	nt	-3.1	-2	-0.3	-2	27	2.6
Cc1ccc2c(C)c(C(=O)Nc3cccnc3)oc2c1	-5%	nt	3.5	41	0.9	-3	1	-0.2
COc1ccc(C(=O)NCC(=O)NCC2COc3ccccc3O2)cc1 (stereo not given)	-6%	nt	4.9	2	0.3	-7	-18	0.8
Cc1ccc(C)c2[nH]c(=O)c(CN(Cc3ccco3)C(=S)NCC3CCCO3)cc12 (stereo not given)	16%	7.7	-3.0	14	0.2	-6	0	0.3
COc1ccc(NC(=O)CCNC(=O)c2ccccc2)cc1S(N)(=O)=O	-6%	0.6	-2.3	-1	0.4	-2	-2	3.6
Cc1ccccc1N1CC(O)(c2ccccc2)[N+]2=C1SCC2 (stereo not given)	nt	nt	0.9	11	-0.1	-1	-28	-1.1
CN(c1ccccc1)S(=O)(=O)c1cccc(NC(=O)Cn2cnc3ccccc3c2=O)c1	1%	nt	-3.8	-27	0.2	2	7	nt
COCC1CCCCN1C(=O)c1ccc(OC2CCN(CCc3ccccc3)CC2)cc1 (stereo not given)	nt	-0.1	7.6	-7	0.0	-5	10	0.0
CCc1[nH]nc2c1C(c1ccsc1)C(C#N)=C(N)O2 (stereo not given)	3%	nt	?	2	-0.3	-1	-7	1.4
CS(=O)(=O)c1ccccc1-c1nnc(NC(=O)Cc2ccccc2)o1	nt	2.0	1.4	0	-0.2	nt	-2	2.1
CC1CN(C(=O)C(C)Sc2nnnn2C)CC(C)O1 (stereo not given)	7%	-1.6	-1.7	4	0.4	-5	4	-4.0
O=C(OCC(=O)N1CCN(C(=O)c2ccco2)CC1)c1cc(F)c(F)cc1Cl	-14%	0.0	nt	nt	-0.6	-2	nt	2.5
O=C(COC(=O)c1ccccn1)NC1CCCCC1	-9%	nt	3.5	2	2.0	-6	15	0.5
CCCCSc1nc2c(c(=O)[nH]c(=O)n2C)n1CCc1ccccc1	nt	-6.8	2.9	8	-2.4	8	42	1.6
Cc1noc(C)c1C(=O)OCC(=O)Nc1c(F)cccc1F	2%	1.1	?	-20	-1.2	1	-3	-1.9
O=C(c1ccccc1Nc1ccc(SC(F)F)cc1)N1CCCCC1	-3%	nt	-2.6	-8	-0.1	-5	-1	10.0
Cc1ccc(NC(=O)CN2CCN(C)CC2)cc1S(=O)(=O)N1CCOCC1	-1%	-3.7	2.2	2	1.6	-4	-5	-2.9
COc1cccc(-n2nnc3c(=O)n(C/C=C/c4ccccc4)cnc32)c1	-3%	-4.2	-2.8	2	0.1	5	-3	-1.8
O=C(CSc1nnc(COc2ccc(Cl)cc2)n1Cc1ccco1)c1ccccc1F	6%	nt	3.9	7	0.8	-2	17	-2.4

Additional records follow.
SMILES	Vif A3G	MLL AF4-AF9 inh	RanGTP-Imp inh	Calb FLC	A1 inh	Beta apoptosis	T cruzi inh	LANA-H2A inh
Cc1ccc2c(c1)[C@H]1[C@H](CO2)[C@H](c2ccccc2)[C@]2(C)C(=O)Nc3cc(F)ccc3C(=O)N12	nt	3.7	nt	nt	-1.0	19	nt	2.3
CCOC(=O)c1cnc(Nc2ccccc2)nc1C(F)(F)F	4%	-3.0	2.2	3	-0.6	-3	16	1.1
CC(=O)c1cc(C(=O)c2ccccc2)sc1Nc1ccccc1	-2%	nt	1.8	2	0.2	-1	33	-3.8
Cc1ccc(CNC(=O)CCS(=O)(=O)c2ccc3c(c2)CC(C)N3C(=O)C2CC2)o1 (stereo not given)	nt	-1.7	0.3	-34	3.5	5	-8	-4.7
O=C(c1ccco1)N1N=C(C2CCCCC2)CC1(O)C(F)(F)F (stereo not given)	18%	-0.4	-3.0	-32	-0.4	nt	5	-2.1
CCOC(=O)C1CCN(C(=O)c2ccc(Br)o2)CC1	6%	nt	-2.7	-13	-0.3	-1	-2	3.2
CS(=O)(=O)c1ccc(Cl)c(NC(=O)Nc2ccccc2)c1	-5%	-6.4	-2.1	3	0.7	-9	2	-4.4
Cn1c(C(=O)N[C@@H](C(=O)O)c2ccccc2)cc2cc(Cl)ccc21	61%	-4.4	-2.6	1	-0.9	0	-6	0.4
N=c1oc2ccc3ccccc3c2cc1C(N)=S	nt	-0.6	76*	8	-0.1	-7	3	1.8
COc1ccc(C(C(=O)NC2CCCCC2)N(C(=O)c2ccco2)c2ccccc2OC)cc1 (stereo not given)	nt	-0.8	-0.3	1	1.0	-6	12	1.8
COc1cccc(NC(=O)CSc2nnc(COc3ccc4c(c3)CCCC4)o2)c1	-2%	nt	-3.4	-4	1.3	-5	-8	-1.6
CCc1ccc(CC)c(S(=O)(=O)Nc2ccc(C(=O)O)c(O)c2)c1	35µM*	nt	-2.2	0	0.4	0	-1	7.6
CC(C)c1ccc(C(=O)N2CCCN(C(=O)c3ccc(C(C)C)cc3)CC2)cc1	-4%	nt	?	-3	1.6	0	-7	-0.5
O=C1C(=O)N(C2CCS(=O)(=O)C2)C(c2cccc(O)c2)/C1=C(/O)c1ccc(Cl)cc1 (stereo not given)	nt	-0.5	-3.7	nt	1.0	-5	4	5.2
